Screening results: PubChem, National Center for Advancing Translational Sciences (NCATS)
Cruzain noTriton = blocks cruzain activity in detergent-free assay; P25779; purified cruzain, Z-FR-AMC fluorescence, no detergent; Potency, µM, without a hit: max response, negative = inhibition, most hits filed as inhibitors; 200,000 tested, 2.3% active;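 further: plate controls were enzyme without inhibitor for no effect and buffer without enzyme for full effect; nearly all actives have a fitted effect of over 40% in size; top concentration of the series not given in the record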
Target sequence (P25779 123-467 limits assumed): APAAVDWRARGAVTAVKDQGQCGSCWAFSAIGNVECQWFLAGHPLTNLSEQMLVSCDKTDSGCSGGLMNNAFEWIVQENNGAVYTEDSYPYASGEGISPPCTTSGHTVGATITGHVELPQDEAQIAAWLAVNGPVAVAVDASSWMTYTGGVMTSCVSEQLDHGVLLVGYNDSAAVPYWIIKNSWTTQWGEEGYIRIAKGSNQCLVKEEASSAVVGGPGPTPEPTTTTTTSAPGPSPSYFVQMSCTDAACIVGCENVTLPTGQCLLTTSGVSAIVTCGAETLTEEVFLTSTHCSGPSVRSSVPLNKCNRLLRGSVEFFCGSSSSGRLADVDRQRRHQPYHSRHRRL
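Detergent-free condition (0.00005% Triton X-100) in acetate buffer pH 5.5 with DTT. 1.5 nM enzyme and compound were pre-mixed 15 min, then 2 uM Z-FR-AMC substrate added; reaction progress from fluorescence change between first and third reads (60 s).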
RE007 growth inh = less growth of the S. pombe RE007 Vpr strain; S. pombe RE007 Vpr strain, BacTiter-Glo ATP luminescence, 24 h; control for the full effect not named in the record; Potency, µM (top dose mostly 92.2 µM), for the others: top-dose activity change, negative = less growth; 360,000 tested, 0.21% active; AID 651644; active = well fitted falling curve with a large enough effect; inconclusive = small, poorly fitted or top-dose-only effect; inactive = no such curve, though single readings can be large or run the other way;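 further: on the % scale 0 is the no-effect control and ±100 the full control effect; nearly all actives have a fitted effect of over 50% in size; the assay follows cell death caused by Vpr and the record does not say whether a fall means rescue or toxicity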
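Fission yeast RE007 carrying one integrated HIV-1 vpr copy, seeded at OD 0.01 in PMG+AL medium with 23 nL pinned compound. Grown 24 h at 30 degrees; viability read by BacTiter-Glo luminescence after 5 min.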
SARS PLpro yeast = SARS-CoV PLP inhibition in yeast; AID 485353; 330,000 tested, 0.19% active; S. cerevisiae expressing SARS-CoV PLpro, growth rescue; control for the full effect not named in the record; Potency, µM (highest dose often 32.9 µM), for the others: top-dose activity, positive = growth rescue; active means well fitted rising curve with a large enough effect; inconclusive means small, poorly fitted or top-dose-only effect; inactive means no such curve, though single readings can be large or run the other way; further: 0% is about no effect; nearly all actives have a fitted effect of over 55% in size; growth read by luminescence after 48 h
Cruzain inh Det = cruzain (T. cruzi) inhibition with detergent. Potency, µM, inactives show max response, negative = inhibition, hits mostly inhibitors. AID 1478. purified cruzain, Z-FR-AMC fluorescence, 0.01% Triton. 200,000 tested, 0.43% active;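 further: plate controls were neutral wells for no effect and buffer without enzyme for full effect; nearly all actives have a fitted effect of over 40% in size; top concentration of the series not given in the record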
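Compounds were screened in titration against cruzain (1.5 nM) with 0.01% Triton X-100 to counter colloidal aggregation. Activity was the AMC fluorescence increase over 60 s after adding 2 uM Z-FR-AMC at pH 5.5.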
StopGo reporter = lowers the luciferase signal of an FMDV 2A StopGo reporter. human cells with a luciferase reporter of 2A StopGo recoding; control for the full effect not named in the record. Potency, µM (top dose mostly 57.9 µM), without a hit: at the highest dose signal change, negative = less light. 410,000 tested, 1.2% active; active = well fitted falling curve with a large enough effect; inconclusive = small, poorly fitted or top-dose-only effect; inactive = no such curve, though single readings can be large or run the other way; tested in HEK293T cells; further: on the % scale 0 is the no-effect control and ±100 the full control effect; nearly all actives have a fitted effect of over 45% in size; luciferase light after 4 h
Lassa entry inh = Lassa virus entry inhibition | 300,000 tested, 1.2% active | AID 540256 | Potency, µM (titrated, usually from 37.9 µM), without a hit: at the top dose activity change, negative = inhibition, hits mostly inhibitors | Lassa virus pseudotype entry inhibition, cell reporter; control for the full effect not named in the record; active means well fitted inhibition curve with a large enough effect; inconclusive means small, poorly fitted or top-dose-only effect, or effect the other way; inactive means flat fitted curve, though single readings scatter; tested in HEK293 cells; further: on the % scale 0 is the no-effect control and ±100 the full control effect; nearly all actives have a fitted effect of over 50% in size; luciferase read-out
NS1 inh = blocks influenza NS1 protein function; S. cerevisiae slowed by influenza A NS1, growth recovery by OD600; Potency, µM (doses to about 46.1 µM), without a hit: top-dose activity, positive = more growth; 270,000 tested, 0.4% active; active means well fitted rising curve with a large enough effect; inconclusive means small, poorly fitted or top-dose-only effect; inactive means no such curve, though single readings can be large or run the other way; further: nearly all actives have a fitted effect of over 50% in size
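OD600 was taken as the measure of yeast growth restored by compound in an NS1-expressing S. cerevisiae strain. Cells had been washed out of glucose medium and diluted 1:100 into galactose -URA medium, pH 6.0.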
MARV entry inh = inhibitors of Marburg virus binding or cell entry | Marburg virus pseudotyped entry inhibition, cell reporter; control for the full effect not named in the record; about a third of the inactives were read at about 46 µM | Potency, µM (highest dose often 37.8 µM), without a hit: at the top dose activity change, negative = inhibition, usual class: inhibitors | 300,000 tested, 1.8% active; active = well fitted inhibition curve with a large enough effect; inconclusive = small, poorly fitted or top-dose-only effect, or effect the other way; inactive = flat fitted curve, though single readings scatter; tested in HEK293 cells; about a fifth of its hits are not listed in these tables; further: on the % scale 0 is the no-effect control and ±100 the full control effect; luciferase read-out
An asterisk follows results filed as active; ? = inconclusive; . = no result given; & = joins results of further samples; [ ] = another dose, or the depositor's remark. Unless noted, the call rests on the fitted dose curve; in most records, active means well fitted curve in the direction sought with a large enough effect; inconclusive means small, poorly fitted or top-dose-only effect, or another doubt; inactive means no such curve, though single readings can be large; an effect the other way counts as inactive or inconclusive. Potency means the concentration at half of the fitted maximal effect.

SMILES	Cruzain noTriton	RE007 growth inh	SARS PLpro yeast	Cruzain inh Det	StopGo reporter	Lassa entry inh	NS1 inh	MARV entry inh
CC(=O)NC(Cc1ccc(C)cc1)C(=O)NC1CCN(C(=O)c2cnccn2)CC1 (stereo not given)	-3%	9%	-10%	0.4%	-4%	-11%	-10%	23%
Nc1ncnc2c1ncn2C1C=C(CO)C(O)C1O (stereo not given)	.	7%	.	.	-1%	0.25µM*	.	.
CCCOc1ccc(-c2c(C(=O)N/N=C/c3ccco3)nnn2-c2nonc2N)cc1	.	3%	-6%	.	8%	-30%[46.1 µM]	-3%	?
Cc1ccc(N=Nc2ccc(O)cc2)c(Br)c1	.	?	-23%	.	-81%	10µM*	-153%	?
CCOc1ccccc1NC(=O)COc1ccc2ccc(=O)oc2c1	.	11%	-1%	.	8%	12%[46.1 µM]	-5%	0%[46.1 µM]
O=C(O)c1cccc2c1-c1c(cccc1[N+](=O)[O-])C2	.	-2%	.	.	9%	0%[46.1 µM]	.	4%[46.1 µM]
CCn1c(SCC(=O)N2CCC(C(N)=O)(N3CCCCC3)CC2)nc2ccccc2c1=O	.	0%	.	.	-4%	3%	4%	11%
COC(=O)C(O)(c1ccc(N(C)S(=O)(=O)c2ccccc2)cc1)C(F)(F)F (stereo not given)	3%	1%	-2%	-5.0%	32%[activator]	?	-12%	17%
CCCCC(=O)Nc1cc(NC(=O)CCCC)cc(C(=O)O)c1	2%	-10%	0%	-4.4%	.	3%	-7%	-4%
O=C(NCC(=O)N1CCN(c2ncccn2)CC1)c1ccccc1OC(F)F	.	-7%	-6%	.	6%	-3%	.	-15%
CCc1nnc(NC(=O)CSc2nnc3scc(-c4ccc(C)cc4)n23)s1	.	16%	.	.	16%	?	-6%	1%&11%
COCCNc1cc(C)nc2ccccc12	-9%	-16%	-2%	1.6%	?	?	-10%	8%[46.1 µM]
COc1cccc(NC(=O)CCCCCn2nnc3ccccc3c2=O)c1	.	-8%	0%	.	12%	2%[46.1 µM]	-6%	?
O=C(Nc1ccc(C(=O)N2CCCC2)cc1)c1ccccc1Br	.	0%	1%	.	8%	8%	1%	5%
[O-][n+]1c2c(nn1-c1ccccc1)/C(=N/O)CCC2	.	7%	-1%	.	-5%	-2%	5%	12%
CCOC(=O)Cc1cc(=O)n2[nH]c(C)c(C#N)c2n1	2%	1%	-7%	-0.6%	.	-4%	11%	0%
CCOc1ccc2nc3ccc4[nH]onc4c3c2c1	.	15%	.	.	.	-12%	3%	-7%
CC1=C(C(=O)OC(C)C)C(c2ccncc2)n2ncnc2N1 (stereo not given)	-9%	24%	.	4.7%	-15%	4%	4%	3%
Cc1nc(CSc2ccc(Cl)cc2)cc(NCc2ccccc2)n1	10%	-27%	-1%	-4.6%	-24%	-11%	-49%	?
CC(=O)C1C=CC(C)(C(=O)O)C2C=C(C)C(=O)C(C)(O)C12 (stereo not given)	.	-5%	.	.	-6%	-9%[46.1 µM]	.	19%[46.1 µM]
COC(=O)CCC(=O)Nc1cccc2ccccc12	1%	2%	1%	4.1%	3%	?	9%	-1%
O=C(N=C1SC2CS(=O)(=O)CC2N1c1ccccc1Cl)C1CCCO1 (stereo not given)	.	-3%	-3%	.	12%	20%[46.1 µM]	-4%	?
O=C(NCc1ccc2c(c1)OCO2)C1CCN(C(=O)Nc2ccc(Cl)cc2)CC1	?	15%	8%	-2.8%	0%	7%	0%	25%
CN1CCC(=O)N([C@H](CSc2ccccc2)c2ccccc2)CC1	.	1%	2%	.	33%[activator]	.	-11%	.
O=C(CCS(=O)(=O)c1cccs1)Nc1ccc(C(=O)NC2CCCC2)cc1	.	-6%	-1%	.	-24%	21%[46.1 µM]	8%	-2%[46.1 µM]
COC(=O)Cc1[nH]nc2c1C1(C(=O)N(Cc3ccccc3)c3ccccc31)C(C#N)=C(N)O2 (stereo not given)	3%	0%	-1%	-1.3%	-8%	-22%	2%	1%&1%
Cc1ccc(/C=C/c2onc(C)c2S(=O)(=O)N2CCC(C(=O)N3CCOc4ccccc43)CC2)cc1	-28%	.	.	-3.0%	-19%	2%[46.1 µM]	.	.
CN(C)c1ccc(CN(C)C2CCCCC2)cc1	4%	-5%	-2%	2.8%	.	-2%	0%	-12%
NS(=O)(=O)c1ccc(CCNC(=O)C(=O)NCC2OCCN2S(=O)(=O)c2ccc(Cl)cc2)cc1 (stereo not given)	.	-22%	3%	.	0%	.	-10%	.
COc1ccc(C2N(c3ccc(F)cc3)C(=O)C3CCCN32)cc1 (stereo not given)	0%	11%	5%	0.5%	-5%	.	1.1µM*	.
COCc1nnc(NS(=O)(=O)c2ccc(C)cc2)s1	-6%	20%	-2%	1.0%	20%	5%	-7%	?
Cc1c(CC(=O)NCc2ccccc2)c(=O)oc2c(C)c(O)ccc12	3%	.	.	-12%	-7%	.	.	?
COc1ccc(S(=O)(=O)N2CCCC(C(=O)N3CCCCCC3)C2)cc1 (stereo not given)	-2%	-5%	6%	3.4%	-20%	-9%	-11%	8%
Cc1cc(NCCOCCO)n2c(nc3ccccc32)c1C#N	.	1%	1%	.	-12%	0%[46.1 µM]	1%	18%[46.1 µM]
COc1ccc(-n2c(=O)c3c(C)c(C)sc3n(CC(=O)NCc3ccc(C)cc3)c2=O)c(OC)c1	?	.	.	-5.0%	-10%	?	.	1%[46.1 µM]
Cc1ccc(C)c(NC(=S)NCCSc2ccc(Cl)cc2)c1	-2%	5%	-55%	-5.6%	3%	-16%	-6%	14%
O=c1[nH]c(-c2ccccn2)nc2ccccc12	7%	-78%	1%	-0.9%	-15%	?	-18%	?
Cc1nn(-c2ccccc2)c(C)c1/C=C/C(=O)OCC(=O)NC1CCS(=O)(=O)C1 (stereo not given)	.	2%	4%	.	50%[activator]	8%	.	29%[46.1 µM]
CCCCN(C(=O)C1CC(=O)N(c2ccc(C)cc2)C1)c1c(N)n(CCC)c(=O)[nH]c1=O (stereo not given)	.	13%	-4%	.	-4%	-16%	.	-1%
Cc1ccccc1NC(=O)CSc1nc2ccccc2c2nc(CCn3c(C)nc4ccccc43)nn12	3%	.	.	1.7%	?	1%[46.1 µM]	.	.
COc1ccc(-c2oc3ncn4nc(COc5ccccc5C)nc4c3c2-c2ccc(OC)cc2)cc1	1%	.	.	0.3%	-5%	5%[46.1 µM]	.	.
O=C(CSc1nnc(-c2ccccc2O)o1)N1CCOCC1	.	71%	17%	.	21%	4%[46.1 µM]	12%	?
COc1ccc(S(=O)(=O)N2CCC(C(=O)NCCC3=CCCCC3)CC2)cc1OC	29%	-8%	-9%	0.2%	.	11%	-9%	?
N#Cc1ccc(Cn2c(-c3ccc(F)cc3)noc2=O)cc1	.	13%	-9%	.	-12%	6%[46.1 µM]	-9%	3%[46.1 µM]
Cc1ccc(N(C)S(=O)(=O)c2cccc(C(=O)NC3CC(C)(C)NC(C)(C)C3)c2)cc1	.	3%	1%	.	0%	-3%	.	?
CCCCNC(=O)N1CCc2[nH]c3ccccc3c2C1	.	-1%	-2%	.	-8%	.	-9%	.
COC/C=C/C1=CC2=CC(=O)C(C)(OC(=O)c3cnc4ccccc4n3)C(=O)C2=CN1CCN1CCOCC1 (stereo not given)	.	-8%	-1%	.	20%	.	-1%	.
CCSc1ncc(Cl)c(C(=O)Nc2cc(C)ccc2C)n1	?	-1%	0%	-1.7%	-12%&5%	10%[46.1 µM]	1%	-22%&-22%[46.1 µM]
Cc1[nH]c2ccccc2c1C1N2CC3(C)CN1CC(C)(C2)C3=O (stereo not given)	4%	.	.	-1.9%	-15%	-9%[46.1 µM]	.	26%[46.1 µM]
CCn1cc(C(=O)NCCc2ccccc2)c(=O)c2cc(S(=O)(=O)N3CCc4ccccc4C3)ccc21	-7%	.	.	-3.3%	-6%	?	.	18%[46.1 µM]
Cc1ccsc1/C=N/NC(=O)CN1CCN(S(=O)(=O)c2ccc(Br)cc2)CC1	-4%	-12%	-2%	-1.5%	-7%	-2%	3%	-4%
COc1cccc(NC(=S)NN=C2CCCCCC2)c1	.	4%	11%	.	44%[activator]	-29%	11%	-5%[46.1 µM]
Cc1cccc(-n2c(SCc3ccc([N+](=O)[O-])cc3)nnc2-c2c[nH]c3ccccc23)c1	.	7%	0%	.	-29%	?	0%	?
CC(OC(=O)C1=Cc2ccccc2OC1)C(=O)NC1CCCC1 (stereo not given)	-11%	1%	-1%	0.0%	.	19%	-1%	-1%
COc1ccccc1CN1CC(C(=O)N2CCCCCCC2)CCC1=O (stereo not given)	.	1%	-2%	.	15%	7%	3%	-10%
Oc1cccc(Nc2nc(O)c(/C=C3\C=Nc4ccccc43)s2)c1	.	-13%	0%	.	25%	.	10%	.
COc1cccc(N2CCN(C(=O)CSc3ccc(F)cc3)CC2)c1	.	9%	-4%	.	14%	-6%	.	16%[46.1 µM]
O=C(C1CCN(Cc2ccccc2)CC1)N1CCCC1	13%	20%	22%	3.8%	-14%	-1%	20%	?
CN1C(=O)CSc2ccc(NC(=O)N3CCN(c4ccccn4)CC3)cc21	1%	-29%	15%	-2.6%	?	-7%	?	?
Cc1cc(C(=O)N2CCN(c3ccc([N+](=O)[O-])cc3)CC2)no1	-8%	1%	-14%	-10%	0%	-1%	11%	-8%
CCOc1ccc(NC(=O)N2CCC(NC(=O)C(Cc3ccc(OC)c(OC)c3)NC(C)=O)CC2)cc1 (stereo not given)	11%	8%	2%	7.0%	10%	16%	6%	26%
O=C(COCc1cc(-c2ccc(F)cc2)on1)Nc1cccc(C(F)(F)F)c1	7%	.	.	-6.5%	-8%	0%[46.1 µM]	.	2%[46.1 µM]
CCCOc1ccc(NC(=O)CC2C(=O)N(c3cccc(OC)c3)C(=O)N2Cc2cccs2)cc1 (stereo not given)	12%	.	.	-7.1%	3%	-14%[46.1 µM]	.	.
